# From PubChem
# Beta apoptosis = beta cell apoptosis inhibition; INS-1E cytokine-induced death, ATP luminescence, 48 h; percent of positive-control rescue, neutral wells zero; hit rate 0.8% among 300,000; protection from apoptosis, % (test concentration not listed);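 active = all replicates at 75% or more, or half of them and the mean; inconclusive = half reach 75% but not the mean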;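 note: 0% = cytokine-treated negative control wells and 100% = positive control rescue; higher means more ATP so stronger rescue from cytokine killing; wells of about 40 µL received 100 nL stock; the first replicate is given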
# Bfl-1 A1 inh = inhibitors of the anti-apoptotic protein A1, read as caspase activation | AID 2462 | caspase activation, % (no concentration beside the values) | MEF A1-2A-BIM cells, Caspase-Glo 3/7 luminescence, 3 h; percent of clofoctol response, vehicle zero | hit rate 0.066% among 330,000;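 active = over half of replicate activation scores above 10%, or exactly half above 10 with the replicate mean above 10; inconclusive = replicate mean below 10 yet half the replicates above 10; inactive = over half of replicates below 10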;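 note: wells of about 30 µL received 50 nL stock; many hits fall short of the cut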
# T cruzi repl = blocks replication of Trypanosoma cruzi. inhibition, % (no concentration beside the values). T. cruzi beta-gal in NIH3T3, luminescence, 90 h. hit rate 1.4% among 300,000;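 active = mean inhibition across valid replicates above about 55%, limit read from the data; inconclusive = mean below that limit but half or more replicates reach it; inactive = mean below it, under half of replicates reach it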;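 note: signal also drops with host cell toxicity which is not excluded here; 0% = plate median of DMSO wells and 100% = zero luminescence signal; higher percent means less beta-gal luminescence so fewer parasites; stock transfer was 50 nL into about 50 µL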
# AF4-AF9 inh = inhibitors of human MLL-AF4/AF9 interaction; P42568; AlphaScreen, biotin-AF4 peptide binding to FLAG-AF9; inhibition, % at 10 µM; hit rate 0.47% among 350,000; AID 651704;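 active = every replicate reaching a set inhibition limit, whatever the replicate mean, cut at about 25% in these data; inconclusive = mean inhibition reaches that limit but some replicates miss it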;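 note: 0% = plate neutral control median and 100% = total signal loss; the record names both 10 and 1 µM as test concentration; the first replicate is given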
# Target sequence (P42568 whole entry, looked up): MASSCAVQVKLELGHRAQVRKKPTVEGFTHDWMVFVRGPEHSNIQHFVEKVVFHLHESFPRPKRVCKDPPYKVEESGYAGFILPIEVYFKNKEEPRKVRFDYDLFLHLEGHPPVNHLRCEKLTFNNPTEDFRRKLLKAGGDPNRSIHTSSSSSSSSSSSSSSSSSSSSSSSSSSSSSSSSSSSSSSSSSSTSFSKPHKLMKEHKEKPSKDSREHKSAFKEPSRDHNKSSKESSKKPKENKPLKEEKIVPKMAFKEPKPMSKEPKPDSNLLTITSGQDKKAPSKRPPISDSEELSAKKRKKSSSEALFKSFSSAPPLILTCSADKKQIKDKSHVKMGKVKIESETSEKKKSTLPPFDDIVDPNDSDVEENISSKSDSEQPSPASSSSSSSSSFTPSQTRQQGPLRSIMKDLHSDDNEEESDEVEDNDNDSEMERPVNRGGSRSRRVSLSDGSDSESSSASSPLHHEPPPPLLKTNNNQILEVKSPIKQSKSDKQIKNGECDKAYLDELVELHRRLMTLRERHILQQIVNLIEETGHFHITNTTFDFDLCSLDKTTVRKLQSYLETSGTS
# Calb FLC = affects C. albicans growth with fluconazole; C. albicans CaCi-2 (fluconazole-resistant clinical isolate) + fluconazole, Alamar Blue growth, 48 h; growth inhibition, % (test concentration not listed); hit rate 0.57% among 300,000; AID 1979;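 active = most replicates above 75%; inconclusive = exactly half above 75%; inactive = most below 75%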;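 note: all wells also contain fluconazole at 8 µg/ml as a sub-toxic cotreatment; 0% = median of DMSO wells and 100% = median of geldanamycin control wells; wells of about 8 µL received 7.5 nL stock; the first replicate is given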
# LANA-H2B inh = blocks KSHV LANA binding to histone H2A/H2B; cell-free LANA-H2A/H2B peptide, fluorescence polarization; inhibition, % (no concentration beside the values); hit rate 0.6% among 320,000; AID 2629; in the data active = inhibition mostly above about 10%, no sharp cut-off; inactive = mostly below about 6.7%;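 note: stock transfer was 7.5 nL into about 10 µL; 0% = median of vehicle wells and 100% = median of positive control wells; one replicate is shown; the record names a cut of 25% in any replicate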
# RanGTP-Impb inh = disruptors of Ran-importin-beta complex formation – biochemical, FRET, CFP-Ran, YFP-importin-beta, homogeneous, primary screen. cell-free CFP-Ran/YFP-importin-beta FRET ratio. inhibition, % (no concentration beside the values). hit rate 1.1% among 300,000. AID 2216;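 active = most replicates above 15%; inconclusive = exactly half above 15%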;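 note: 0% = DMSO wells and 100% = Ran loaded with GDP instead of GTP; wells of about 40 µL received 100 nL stock; the first replicate is given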
# Vif TR-FRET = HIV-1 Vif–A3G interaction blockers – biochemical, TR-FRET, GST-Vif 1-94, biotin-A3G peptide, dose response retest, primary screen (AID 1117319); TR-FRET GST-Vif / biotin-A3G peptide binding; higher % means a stronger effect; test concentration not given here; strong numbers were not always called active; one-dose inhibition, %; IC50 in µM for titrated hits; hit rate 0.57% among 260,000;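 active = above the screen mean plus three standard deviations and confirmed in dose response; inconclusive = results disagree or hit not tested in dose response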;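 note: Vif residues 1-94 fused to GST binding biotinylated APOBEC3G peptide 110-148; 0% = full assay without inhibitor and 100% = GST in place of GST-Vif; retest series ran down from 100 µM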
# * = called active by the depositor; ? = inconclusive; nt = not tested or not shown.
# Each structure is followed by: Beta apoptosis	Bfl-1 A1 inh	T cruzi repl	AF4-AF9 inh	Calb FLC	LANA-H2B inh	RanGTP-Impb inh	Vif TR-FRET
COc1ccc2nc(SCC(=O)Nc3ccc4c(c3)OCCO4)[nH]c2c1
    0	0.5	5	nt	6	4.5	8.1	12%
Cn1nc(C(=O)Nc2ccccc2)c2c1-c1ccccc1S(=O)(=O)C2
    4	0.5	-2	4.0	-18	3.4	-1.2	nt
O=C(c1ccc(CN2CCOCC2)cc1)N1CCN(Cc2ccccc2)CC1
    nt	0.1	-25	nt	34	-6.8	-1.1	1%
COc1ccc2c(c1OC)C(=O)N1c3ccccc3SC21 (stereo not given)
    -5	-5.3	-12	nt	30	4.1	5.3	12%
CC1CN(CC(=O)Nc2cccc(C(=O)Nc3cccc(C(F)(F)F)c3)c2)CC(C)O1 (stereo not given)
    -1	-4.0	10	nt	-1	-0.1	-6.5	-2%
O=C(CSc1n[nH]c(-c2ccc(S(=O)(=O)NC3CCCCC3)cc2)n1)N1CCCC1
    -5	-0.4	-5	nt	-1	-2.9	-4.7	0%
Nc1nc(N)nc(-c2ccccn2)n1
    2	1.1	3	nt	-1	-2.8	2.3	-2%
CCn1c2ccccc2c2cc(NC(=O)CSc3nccc(=O)[nH]3)ccc21
    -2	0.2	20	-1.3	15	-2.6	0.9	2%
CCC(C)c1ccc(S(=O)(=O)N2CC(=O)Nc3ccccc32)cc1 (stereo not given)
    5	0.1	-4	nt	9	0.0	2.1	nt
COC(=O)CN(C#N)c1nc(N(C)C)nc(N(C)C)n1
    -10	-0.3	-14	-1.1	12	1.4	?	1%
Cc1cc(CN(C)C(=O)CC2C(=O)NCCN2CC(c2ccccc2)c2ccccc2)on1 (stereo not given)
    -19	-0.2	1	-1.0	-11	2.8	-0.6	8%
O=S(=O)(NC1CCN(S(=O)(=O)c2c(F)cccc2F)CC1)c1ccc2c(c1)OCCO2
    -4	-0.2	nt	-1.6	nt	-2.6	nt	nt
Cc1ccc2cc(CN(Cc3cccs3)Cc3nnnn3CC3CCCO3)c(=O)[nH]c2c1 (stereo not given)
    0	-0.9	32	4.8	12	-1.8	-1.9	?
Cc1ccc(SCC(=O)Nc2cccnc2)cc1
    -8	-1.1	-6	nt	-6	-1.4	0.3	-4%
COc1ccc(-n2nc(C(=O)NCC(=O)NCC3COc4ccccc4O3)c3ccccc3c2=O)cc1OC (stereo not given)
    -7	0.4	4	1.0	17	3.2	1.3	-9%
CCCCCCSc1nsc(NC(=O)CC(C)C)n1
    -6	-0.1	39	-1.9	-14	-6.1	-0.6	nt
O=C(c1ccco1)N1CCN(C2c3ccccc3-c3ccccc32)CC1
    -1	0.2	8	4.5	-16	-18	2.3	nt
COc1ccc(C(=O)Nc2ncc3c(n2)CC(C)CC3=O)cc1 (stereo not given)
    -1	-0.8	64*	1.1	-7	2.4	4.3	-8%
O=C1NC(=O)C2(CCC(C(=O)O)C2)N1 (stereo not given)
    -6	0.5	-13	nt	-9	1.9	-1.7	nt
O=C(NCC1CCCO1)c1cc(S(=O)(=O)N2CCOCC2)ccc1Cl (stereo not given)
    1	-0.3	1	0.0	nt	6.4	nt	nt
Nc1nnc(CC(=O)N/N=C/c2ccccc2OCc2ccccc2F)s1
    -2	-0.8	-2	-0.2	-3	6.3	-2.3	-4%
Cc1cc(C(=O)COC(=O)c2ccc([N+](=O)[O-])o2)c(C)n1CC1CCCO1 (stereo not given)
    -6	-0.1	13	-2.7	-5	-1.6	4.7	27%
CC(NC(=O)CN1C(=O)NC2(CCCCCC2)C1=O)c1ccccc1Cl (stereo not given)
    1	0.1	nt	-1.3	nt	-2.0	nt	8%
COc1cc(O)cc2occ(-c3ccc(O)cc3)c(=O)c12
    -13	-2.3	-9	-3.7	2	-2.0	0.6	16%
COc1ccccc1CNC(=O)c1c(O)c2cc(OC)c(OC)cc2[nH]c1=O
    nt	0.1	8	nt	1	-5.9	1.0	2%
COC(=O)CCN1CCC(C(N)=O)CC1
    -2	0.0	21	nt	6	4.4	?	0%
CSc1nc(Cc2ccccc2)nc2ccccc12
    -8	-0.4	-3	-7.2	12	2.4	5.9	nt
Cc1c(NC(=O)c2coc(=O)c(Br)c2)c(=O)n(-c2ccccc2)n1C
    6	1.1	-20	nt	-1	4.1	-3.0	26%
C=CCn1c(Cc2csc(N)n2)nnc1SCc1ccc(C(=O)OC)cc1
    2	0.2	6	-22	4	-0.2	1.4	18%
Cn1cccc1C(=O)N1CCc2ccccc2C1
    -9	-3.2	3	2.7	-9	-2.8	-17	nt
Cc1cccc(C(=O)OCC(=O)NCCN2C(=O)CSC2=O)c1[N+](=O)[O-]
    -9	1.0	nt	-3.9	nt	10	nt	nt
Nc1cc(=O)[nH]c(SCc2ccccc2Cl)n1
    -10	-0.1	-10	-0.8	-1	-0.5	3.8	nt
Cc1ccc2cc(CN(CCN3CCOCC3)C(=O)NCc3ccccc3)c(=O)[nH]c2c1C
    nt	nt	7	nt	7	nt	12	9%
COCCN(C(=O)COC(=O)c1cc2ccccc2cc1O)c1c(N)n(Cc2ccccc2)c(=O)[nH]c1=O
    -4	1.1	-4	14	5	-18	-3.1	1%
CN(C)CCCOc1nc2c(c(=O)n(C)c(=O)n2C)n1C
    -1	-0.6	-11	nt	5	1.9	3.6	11%
Fc1ccc(NC(=S)N2CCCC(c3ccccc3)=N2)cc1
    nt	-2.1	24	6.1	-26	7.5	-4.7	-13%
CCCCCCCNC(=O)C1(CC2CC(c3cccc(Br)c3)=NO2)CCN(C(=O)OC(C)(C)C)CC1 (stereo not given)
    5	0.6	-10	0.2	-2	-3.4	0.6	nt
Cc1ccc(S(=O)(=O)NCc2csc(-c3cccs3)n2)cc1
    -7	0.3	-2	-3.4	-1	1.9	-0.9	-5%
O=C(Nc1ccccc1N1CCOCC1)c1ccc(Cl)c(S(=O)(=O)NCc2ccco2)c1
    16	0.0	6	6.5	3	-3.6	-1.2	-9%
COc1cc(OC)cc(-c2cc3nc(C)c(CCC(=O)O)c(=O)n3[nH]2)c1
    7	-6.0	-12	1.3	-6	0.3	-0.4	2%
CCOCCCNC(=O)c1oc2ccc3c(c2c1C)C(O)CC(C)(C)O3 (stereo not given)
    -5	-0.8	-10	-1.8	0	5.2	0.7	0%
COC(=O)C1C(O)=CC(=O)CC1C (stereo not given)
    -2	0.5	-16	nt	-1	12	0.0	13%
Cc1cccc(CCNC(=O)CCS(=O)(=O)c2ccc(Br)cc2)c1
    -7	0.0	-12	nt	?	18*	-3.5	nt
Cc1ccc(NC(=O)Cn2nc(C(=O)O)c3ccccc3c2=O)c([N+](=O)[O-])c1
    -7	0.1	-3	-0.6	2	2.5	1.9	nt
O=C(/C=C/c1cccc([N+](=O)[O-])c1)NC(=S)Nc1cccc(NC(=O)c2ccccc2Cl)c1
    2	0.0	-6	nt	-5	-7.2	2.5	3%
CCOC(=O)C1=C(C)OC(N)=C(C#N)C1c1cc(Cl)c(OCC(N)=O)c(OC)c1 (stereo not given)
    -7	-0.3	1	nt	-8	-1.9	-0.2	67%
O=C(O)C[C@H]1c2cc(C(F)(F)F)ccc2S(=O)(=O)N1C1CCCCC1
    -5	0.6	-3	-3.7	-17	-7.9	7.1	nt
COc1ccc(NS(=O)(=O)c2cc(C)ccc2OC)cc1OC
    0	-0.6	4	nt	-6	-1.5	0.8	5%
CCc1ccc(-c2nn(Cc3ccccc3)cc2C(=O)NCC2CCCO2)cc1 (stereo not given)
    -1	1.3	nt	0.7	nt	1.9	nt	-13%
CN(Cc1ccccc1)C(=O)CCC1CCN(C(=O)CCC(F)(F)F)CC1
    -3	-0.1	8	2.0	-6	-11	2.4	-2%
CCN(CC)CCCNc1nc(-c2ccccc2)nc2ccccc12
    6	0.1	11	nt	-28	-5.3	5.7	4%
CCCC1(C)NC(=O)c2ccccc2O1 (stereo not given)
    -7	1.0	-5	-0.5	-24	-12	3.7	-9%
C/C=C(/C)C(=O)Nc1cccc(C2=NOC3(C2)C[C@@H](C(N)=O)N(C(=O)/C=C/CC)C3)c1 (stereo not given in full)
    -3	0.1	-2	-10	-3	0.9	0.4	14%
CC(C)c1ccc2oc(=O)cc(CN3CCCCC3)c2c1
    -3	0.8	12	-2.7	-8	-4.3	?	-18%
CCOC(=O)CSc1nc2sc3c(c2c(=O)n1-c1ccc(OC)cc1)CCN(C)C3
    -12	-1.0	49	4.3	1	1.5	-3.5	7%
Cc1ccc(CS(=O)(=O)CCC(=O)NCCCOC(C)C)cc1
    -7	0.1	3	nt	6	-0.3	3.8	-3%
Cc1ccn(C(=O)c2ccc(NC(=O)C3CC3)cc2)n1
    -6	0.6	-6	-2.8	7	3.3	?	19%
COC(=O)c1ccc(NC(=O)Cn2c([N+](=O)[O-])cnc2C)cc1
    1	-0.4	-14	1.2	-4	0.5	5.5	16%
CNC(=O)c1[nH]cnc1C(=O)N[C@@H](C)C(=O)OC(C)(C)C
    -4	0.1	1	-4.1	1	-3.0	3.8	-1%
O=[N+]([O-])c1cc([N+](=O)[O-])c(Oc2c(F)ccc(F)c2F)cc1NN1CCCCC1
    8	0.1	-9	3.7	3	3.0	-6.3	nt

# Later entries:
# Each structure is followed by: Beta apoptosis	Bfl-1 A1 inh	T cruzi repl	AF4-AF9 inh	Calb FLC	LANA-H2B inh	RanGTP-Impb inh	Vif TR-FRET
CCOC(=O)[C@H]1[C@H]2COc3ccc(Cl)cc3[C@@H]2N2C(=O)c3cc(Cl)ccc3NC(=O)[C@@]12C
    0	0.6	nt	5.1	nt	-0.1	nt	nt
O=C(NCCC(=O)N1CCOCCOCCOCCOCC1)OCc1ccccc1
    1	0.2	7	-12	1	4.1	-0.7	-4%
c1ccc(Nc2nnc(-c3cccc4ccccc34)o2)cc1
    5	-2.1	0	-3.8	-4	1.6	4.3	3%
COc1cc(/C=C/C(=O)OCC(=O)N2CCCCCC2)ccc1OCC#N
    -13	0.3	-27	-0.7	-14	1.9	-1.6	-5%
O=S1(=O)CC(N2CCCCC2)C(N2CCCCC2)C1 (stereo not given)
    -1	-0.1	-9	nt	0	2.3	2.3	?
Cc1sc2ncnc(SCC(=O)NC3CC3)c2c1C
    -9	-0.7	4	nt	-18	2.2	?	-2%
COc1ccc(-c2csc3nc(C)n(-n4cccc4)c(=O)c23)cc1
    1	0.4	6	nt	13	-2.8	0.2	-4%
CCOC(=O)c1cnc2c(C)c(Cl)ccc2c1Nc1ccc(S(=O)(=O)Nc2ncccn2)cc1
    -9	-0.5	1	nt	3	-5.5	-0.2	?
Nc1nnc(CC(=O)N/N=C/c2ccc(-c3ccc(F)cc3)o2)s1
    -1	1.2	-13	6.6	13	12	4.6	16%
CCOc1ccccc1NC(=O)c1cc(C(=O)c2cc(Br)ccc2O)coc1=N
    2	-0.3	2	-1.3	0	0.3	nt	?
Cc1nn(C)c(C)c1S(=O)(=O)N(CC(=O)N1CCc2ccccc21)c1ccc(C(C)C)cc1
    4	0.9	5	4.0	-5	-3.8	2.4	0%
NC(=O)c1c(NC(=O)c2ccccc2)sc2c1CCC2
    -2	-4.1	15	-2.4	-6	5.7	2.8	nt
Cc1cccc(NC(=S)N/N=C/c2ccc(Cl)c([N+](=O)[O-])c2)c1
    2	0.1	-6	nt	-12	4.5	44*	?
